# Compound activity from PubChem.
# H5N1 antiviral: antiviral screen in MDCK cells, H5N1 avian flu; cytopathic effect, luminescence, 72 h; hits give high values; no value below 0 was filed and about half of the inactive calls have no number; reference of the scale not given here; inhibition, % at 50 µM; 96,000 tested, 0.07% active; in the data active means inhibition above about 25%
# * marks the source's active call; other numbers are inactive results; i = inactive.
Structure,H5N1 antiviral
COc1ccc(C(=O)CSC2=C(C#N)C3(CCCCC3)C(C#N)=C(N)N2)cc1,0.4
COc1ccc(CCNC(=O)CCCCCN2C(=O)c3ccccc3C2=O)cc1,0.1
COc1ccc(OC)c(S(=O)(=O)N(C)CC(=O)N2CCN(c3ccccc3F)CC2)c1,i
CCOC(=O)C(C(=O)OCC)N(C#N)c1nc(OC)nc(N(C)C)n1,2.2
COC(=O)c1cn(CCOc2ccc(C)cc2)c2ccccc12,i
Cc1c(OCc2nn[nH]n2)ccc2c3c(c(=O)oc12)CCC(C)C3 (stereo unspecified),1.9
COc1ccccc1OCC(=O)Nc1cccc(N(C)S(C)(=O)=O)c1,0.1
COc1ccc(CSCCN)cc1Cl,i
N#CCSCC(=O)Nc1ccccc1,0.5
CCOC(=O)c1c(CC(C)C)csc1NC=O,i
CN1CCCC(C(=O)c2ccccc2)C1 (stereo unspecified),i
CCC(C)NC(=O)C1CCN(S(=O)(=O)N2CCCC2)CC1 (stereo unspecified),i
Cc1ccc(-c2c(C)n([O-])c3c([n+]2=O)CCCCC3)o1,1.2
CCN(c1ccccc1)S(=O)(=O)c1ccc(OCc2c(C)noc2C)cc1,1.9
O=C(Nc1ccccc1)C(Cc1ccccc1)NC(=O)C12CC3CC(CC(C3)C1)C2 (stereo unspecified),0.5
COc1cc2c(cc1NC(=O)CN1CCN(S(=O)(=O)c3ccccc3F)CC1)oc1ccccc12,i
Cn1nnnc1SCc1ccccc1F,i
CCOC(=O)c1ccc(-n2ncc(C(=O)OCC)c2N)cc1,0.1
CCN(CC)S(=O)(=O)c1ccc(Cl)c(C(=O)OC)c1,0.6
Cc1cc(C)c(S(=O)(=O)N(CC(=O)N2CCCC2)C2CCCCC2)c(C)c1,0.6

# Structures shown so far containing an aryl methoxy group (7):
Structure,H5N1 antiviral
COc1ccc(C(=O)CSC2=C(C#N)C3(CCCCC3)C(C#N)=C(N)N2)cc1,0.4
COc1ccc(CCNC(=O)CCCCCN2C(=O)c3ccccc3C2=O)cc1,0.1
COc1ccc(OC)c(S(=O)(=O)N(C)CC(=O)N2CCN(c3ccccc3F)CC2)c1,i
CCOC(=O)C(C(=O)OCC)N(C#N)c1nc(OC)nc(N(C)C)n1,2.2
COc1ccccc1OCC(=O)Nc1cccc(N(C)S(C)(=O)=O)c1,0.1
COc1ccc(CSCCN)cc1Cl,i
COc1cc2c(cc1NC(=O)CN1CCN(S(=O)(=O)c3ccccc3F)CC1)oc1ccccc12,i

# The list continues.
Structure,H5N1 antiviral
CCn1c(CNC(=O)Cc2ccc(OC)cc2)nnc1SCC(=O)Nc1nccs1,0.1
CCCn1c(SCC(=O)Nc2cccc(C(=O)OCC)c2)nnc1-c1ccoc1C,0.2
CC1CCc2ccc(F)cc2N1S(=O)(=O)c1cccs1 (stereo unspecified),0.9
COCCn1c(Cc2ccccc2)nnc1SCC(=O)Nc1cc(C)on1,i
COc1cc(-c2nnc(SCC(=O)N(Cc3ccccc3)C(C)(C)C)o2)cc(OC)c1OC,2.5
Cc1[nH]c2ccccc2c1C(=O)COC(=O)C1CC(=O)N(Cc2ccco2)C1 (stereo unspecified),i
CCCCOC(=O)C1=C(N)OC2=C(C(=O)CCC2)[C@]12C(=O)Nc1ccccc12,i
CCCNC(=O)CN(CCc1ccccc1)S(C)(=O)=O,i
Clc1cccc(OCCN2CCOCC2)c1,i
CCCC(=O)Nc1ccc(C(=O)NCCCn2ccnc2)cc1,i
O=C(c1cc2nc(-c3ccc(F)cc3)cc(C(F)(F)F)n2n1)N1CCOCC1,0.9
O=C(CS(=O)(=O)c1c[nH]c2ccccc12)Nc1ccc2c(c1)OCCO2,0.0
CC1=C(C#N)c2nc(N)c(C#N)c(C)c2/C1=C\c1ccc(C)cc1,1.2
CCOC(=O)c1ccc(N(CC(=O)NC2CCCC2)C(=O)CNC(=O)c2ccco2)cc1,0.4
CC(C)CC1(C(=O)O)NC(c2ccccc2O)C2C(=O)N(C(C)C)C(=O)C21 (stereo unspecified),i
COC(=O)c1cccc(NC(=O)CSc2nc3cccnc3n2C)c1,i
COc1ccc(CCNC(=O)c2cnn3cccnc23)cc1OC,2.4
COc1cccc(C2=NOC(C(=O)N3CCN(c4ccccc4)CC3)C2)c1OC (stereo unspecified),i
O=C(NCc1ccccn1)C(F)(F)C(F)(F)C(=O)NCc1ccccn1,i
COc1ccc(CSCC(=O)N/N=C/c2ccc(OCC(=O)NCc3ccco3)cc2)cc1,1.1
CCC(CC)C1C(C#N)=C(N)Oc2n[nH]c(-c3ccccc3)c21 (stereo unspecified),0.2
CNC(=O)Nc1ccccc1F,i
CCOc1ccc(-c2nc(-c3ccncc3)no2)cc1OCC,0.7
CCc1ccc(N2CC(C)Cn3c2nc2c3c(=O)n(CCN3CCOCC3)c(=O)n2C)cc1 (stereo unspecified),i
CCC1(C)N=c2c(c(=O)n(C)c(=O)n2C)=NO1 (stereo unspecified),i
Cc1cc(C)cc(N(C(=O)CNC(=O)c2cccs2)C(C(=O)NC2CCCC2)c2cccnc2)c1 (stereo unspecified),0.5
CCN(CC)c1ccc(NC(=O)c2cccnc2)cc1,i
O=C(Cn1nc(C(F)F)cc1C(F)F)N/N=C/c1ccc2c(c1)OCO2,0.3
Cc1ccc(S(=O)(=O)C2(C(=O)N3CCCCC3C)CC2)cc1 (stereo unspecified),i
CCOc1ccc(NC(=O)c2nnn(CC(=O)Nc3ccccc3OCC)c2N)cc1,i
COc1cc(N(C)C)c(NC(C)=O)cc1C(=O)O,1.4
Cc1nc(C)c(C(=O)C2=C(O)C(=O)N(CCN(C)C)C2c2ccccc2)s1 (stereo unspecified),0.2
COc1ccc(S(=O)(=O)N[C@H](C(=O)O)C(C)C)cc1,0.2
CCOC(=O)N(CC)OC(=O)Nc1ccc(Cl)cc1,i
N#Cc1nc(COc2ccc(F)cc2)oc1N1CCC(Cc2ccccc2)CC1,2.5
CC(C)(C)c1ccc(C(=O)NNc2cc(N3CCCCC3)nc(N3CCCCC3)n2)cc1,0.5
CC(C)Sc1cc(N2CCCC2)nc(-c2ccccc2)n1,0.3
O=C(CS(=O)(=O)Cc1ccccc1)Nc1ccccn1,1.1
Cc1ccc(NC(=O)Cn2c(=O)n(CCCC(=O)NCc3ccco3)c(=O)c3ccccc32)cc1,0.1
O=C(O)c1ccc(CNCc2ccc(Cl)cc2Cl)cc1,1.3
COc1ccc(C)cc1NC(=O)CCC(=O)Nc1nnc(C(F)(F)F)s1,0.3
CCCC1C2C(=O)N(c3ccc(OC)cc3)C(=O)C2ON1c1ccccc1 (stereo unspecified),0.6
COc1ccc(C2C(C#N)=C(N)N(c3sc4c(c3C#N)CCCC4)C3=C2C(=O)CC(C)(C)C3)cc1 (stereo unspecified),i
COc1ccc(C2=NN(C)C(=NCc3ccccc3)SC2)cc1,0.3
CCOC(=O)c1cnc2cc(Cl)c(OC)cc2c1NCC1CCCO1 (stereo unspecified),i
CCOC(=O)NC1(NC(C)C)Oc2ccccc2O1,0.2
O=C(Oc1c(Br)cc(C(=S)N2CCOCC2)cc1Br)c1ccc(Cl)cc1,i
CC(C)(C)OC(=O)NCCc1nnc(SCc2ccccc2Cl)o1,1.1
Cc1ccccc1OCC(=O)Nn1c(COc2ccccc2)nc2ccccc2c1=O,1.2
CC(=O)Nc1ccc(S(=O)(=O)Nc2nc3c(s2)CCCC3)cc1,1.0
CC(=O)Nc1ccc(S(=O)(=O)N(Cc2ccco2)CC2CCCO2)cc1 (stereo unspecified),0.4
Cn1c(SCC(=O)N2CCCC2)nc2ccccc2c1=O,1.8
Cc1ccc(Cn2ccc(NC(=O)c3cc(CC(C)C)on3)n2)cc1,0.3
CC(C)CNC(=O)c1c(N)n(Cc2ccco2)c2nc3ccccc3nc12,i
COc1cc(/C=C/C2=NC(=O)C(C)(C)O2)ccc1O,7.6
Cc1cc(C)c2[nH]c(=O)c(=O)[nH]c2c1,0.7
Cc1cc(C)c(/C=N/NC(N)=O)c(C)c1/C=N/NC(N)=O,0.4
CCCCn1c(CCNC(=O)CCC)nc2ccccc21,0.2
FC(F)(F)c1cc(C(F)(F)F)c2ccc(Oc3ccccc3)nc2n1,i
O=C(COc1ccccc1)Nc1ccc(OC(F)(F)C(F)F)c(NC(=O)COc2ccccc2)c1,0.2

# Going on with the list.
Structure,H5N1 antiviral
COC(=O)c1sc(NC(=O)c2cc(-c3ccccc3)nc3ccccc23)c(C#N)c1C,1.3
O=C(c1ccc(S(=O)(=O)Nc2ccccc2)cc1)N1CCOCC1,i
CC(=O)C1=C(C)NC(C)=C(C(C)=O)C1c1ccc(-c2ccccc2Cl)o1,i
CCCn1nnnc1NCc1ccccc1OCc1ccc(F)cc1,2.0
COc1cccc(C(=O)NCCC2=CCCCC2)c1OC,0.9
CC(C)NS(=O)(=O)c1ccc(OCC(=O)Nc2ccc(F)cc2F)cc1,i
Cc1cccc(NC(=O)Nc2ccc(C#N)cc2)n1,14.6
CS/C(N)=N/N=C/c1ccc([N+](=O)[O-])cc1,i
CCC(Sc1ncccc1C(=O)OCCN1CCCC1=O)C(=O)NCc1ccco1 (stereo unspecified),i
O=C1N(c2ccccc2)C2CS(=O)(=O)CC2N1c1ccc(Cl)c(Cl)c1 (stereo unspecified),i
c1ccc(NCCCNc2ccccc2)cc1,0.7
COc1ccc(C(=O)Nc2c(N)nc(SCC(=O)N3CCC(C)CC3)[nH]c2=O)cc1OC,2.4
Cn1cc(CNC(=O)Nc2ccc3c(c2)OCO3)cn1,0.7
OCCNc1nc(OCC(F)(F)F)nc(N2CCN(C34CC5CC(CC(C5)C3)C4)CC2)n1,i
O=C(Cc1ccccc1)N1CCN(C(=O)c2cccs2)CC1,i
Cc1ccc(Oc2nnc(-c3ccccc3)c3ccccc23)cc1,i
Cc1ccc(S(=O)(=O)N2CCN(C3CC(=O)N(Cc4ccccc4)C3=O)CC2)cc1C (stereo unspecified),i
CC(NS(=O)(=O)c1ccc(Br)cc1)C(N)=O (stereo unspecified),i
COc1cccc2cc(-c3nnc(SCC(=O)Nc4cc(C(F)(F)F)ccc4Cl)n3N)oc12,1.9
CC(=O)c1cccc(NC(=O)NCc2cccnc2)c1,i
CCCC(=O)NCCc1ccc(F)cc1,i
COc1ccc2oc(=N)c(C(=O)Nc3ccccc3)cc2c1,i
COc1ccc(OC)c(N2C(=O)C(Cl)=C(N3CCCCC3)C2=O)c1,i
O=C(Cn1nnc2c(sc3nc4c(c(-c5ccccc5)c32)CCC4)c1=O)c1ccccc1,0.6
CC1Cc2ccccc2N1C(=O)CSc1nnnn1Cc1ccccc1 (stereo unspecified),i
Cn1c(C(=O)N2CCCCCC2)cc2c(=O)n(C)c3ccccc3c21,2.8
Cc1ccc2nc(SCC(=O)Nc3ccc4c(c3)OCCO4)[nH]c2c1,0.4
COc1ccccc1CCC(=O)Nc1nc2ccccc2[nH]1,i
CC(NC(=O)CSc1nc2ccccc2n1CCC#N)c1ccc(F)cc1 (stereo unspecified),i
Cn1c(COc2ccccc2)nnc1SCCC(=O)Nc1ccccc1,0.1
CN(c1ccc(C(=O)N2CCOCC2)cc1)S(C)(=O)=O,i
CC1(C)S/C(=N/N=C/c2cccs2)NC1=O,2.7
CCOc1cccc(N2C(=O)CC(=O)NC2=O)c1,0.1
O=C(COC(=O)c1ccccc1NC(=O)c1ccco1)Nc1ncc(Cl)cc1Cl,i
O=C(Nc1cccc(Cl)c1Cl)c1ccc(-c2ccccc2)cc1,i
Cc1nc2c(-c3ccccc3)c(C)nn2c(C)c1CCC(=O)NCc1ccco1,0.8
CCOC(=O)c1cc2sccc2n1CC(=O)N1CCCc2ccccc21,i
CCn1c(CNC(=O)c2ccc(OC)cc2)nnc1SCC(=O)c1ccccc1,0.8
CCn1c2ccccc2c2nnc(SCC(=O)NCc3cccs3)nc21,i
CC(=O)Nc1ccc(NC(=O)c2ccccc2C)cc1,i

# Three entries from above, arranged by number of heavy atoms, low to high:
Structure,H5N1 antiviral
COc1cccc(C(=O)NCCC2=CCCCC2)c1OC,0.9
CCOc1ccc(-c2nc(-c3ccncc3)no2)cc1OCC,0.7
COC(=O)c1sc(NC(=O)c2cc(-c3ccccc3)nc3ccccc23)c(C#N)c1C,1.3

# Following part.
Structure,H5N1 antiviral
COc1ccc(C2SCC(=O)Nc3c2c(=O)[nH]n3C2CCCCCC2)cc1OC (stereo unspecified),0.3
CC1(C(=O)O)CCC(C(=O)NCCc2ccccc2)C1(C)C (stereo unspecified),i
O=C(Nc1ccc(Cl)cc1)Nc1nccs1,i
Cc1nn(Cc2ccc(F)cc2)c(C)c1NC(=O)c1cc(-c2ccco2)on1,0.5
C=CCNc1nc(Nc2ccc(-c3nc4ccccc4o3)cc2)nc(N2CCOCC2)n1,i
CCOc1ccc(OCC)c(NC(=O)c2ccc(CNc3c(N4CCOCC4)c(=O)c3=O)cc2)c1,i
COc1ccccc1OCCOc1ccc(/C=C2/C(=N)N3OC(C)=CC3=NC2=O)cc1OC,i
Clc1ccc(OCc2nnc(SCCN3CCCCC3)n2Cc2ccco2)cc1,i
O=C1c2cccc3c(N4CCCCC4)ccc(c23)C(=O)N1CCO,3.4
Cc1ccc(N2C(=O)/C(=C\c3ccco3)SC2=S)cc1,i
CC(=O)Nc1ccc(S(=O)(=O)N2CCc3ccccc3C2)cc1,2.1
O=C(NCCc1ccccc1)C1CC(c2ccccc2O)=NO1 (stereo unspecified),0.8
COc1ccc(-c2nn(CCC(=O)O)cc2CCC(=O)O)cc1,i
CC1CCN(c2ccc(/C=N/n3nnnc3N)cc2[N+](=O)[O-])CC1,i
CC1(C)CC(CCC(=O)Nc2ccccc2Cl)C(=O)O1 (stereo unspecified),i
Cn1nnnc1SCC(=O)N1CCN(C(c2ccccc2)c2ccccc2)CC1,i
CCCc1nc2ccccc2c(C(=O)OCC(=O)Nc2ccc(S(=O)(=O)N3CCOCC3)cc2)c1CC,i

# Not all compounds are listed (hit frequency here may not be typical).
